# A1 inh: inducers of caspase activity in MEF A1-2A-BIM cells, primary screen, A1 inhibitor project, cell-based, CaspaseGlo luminescence; caspase-Glo luminescence, 3 h; percent of clofoctol signal, DMSO as zero; caspase activation, % (no concentration beside the values); 0.51% of 21,000 active; AID 2241, 2010;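 active = most replicate scores above 10, or exactly half above 10 with mean activity above 10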;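 note: effector caspase 3 and 7 activity cleaving a DEVD luciferin substrate; 50 nL library stock added to about 30 µL; numbers are from one replicate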
# BJeLR viab HTS: BJeLR cell viability loss, primary screen, luminescence, CellTiterGlo ATP | BJeLR fibroblasts viability, 48 h; HRASV12, hTERT and SV40 LT/ST transformed | viability loss activity score, % (test concentration not listed) | 0.64% of 30,000 active; in the data active = viability loss activity score above about 50%; about a fifth of its hits are not listed in these tables;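 note: higher score means fewer live cells and less ATP luminescence; stock transfer was 50 or 100 nL into about 30 µL; 0% = vehicle wells and 100% = a reference killing control; one replicate is shown; the record names a cut of 85%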
# The depositor's hits bear a star; . = no result given. This is a subset, so the mix of outcomes need not match the whole.
SMILES,A1 inh,BJeLR viab HTS
COc1ccc(C)c2sc(N3CCN(c4nc5c(OC)ccc(C)c5s4)CC3)nc12,.,-5.5
CCC1CCCCN1C(=O)CSc1nnc(C)n2c1cc1sccc12 (stereo unspecified),0.7,-3.4
C[C@@H]1CN([C@@H](C)CO)C(=O)c2cc(N(C)C)ccc2O[C@H]1CN(C)Cc1ccc(Cl)c(Cl)c1,-0.5,1.0
C[C@@H]1CN([C@H](C)CO)C(=O)c2cc(NS(=O)(=O)c3cn(C)cn3)ccc2O[C@@H]1CN(C)S(=O)(=O)c1ccc(Cl)cc1,0.0,1.9
C[C@H](CO)N1C[C@H](C)[C@@H](CN(C)C(=O)Nc2ccc3c(c2)OCO3)Oc2c(cccc2N(C)C)C1=O,.,-2.1
COc1ccc(-c2cn3c4ccccc4n(N)c3n2)cc1OC,.,2.5
Cc1cc(NC(=O)Nc2ccccc2)n(-c2ccccc2)n1,0.3,-4.9
C/C(=N\c1nnc(Sc2nc3cc(Cl)ccc3s2)s1)N(C)C,0.8,0.7
CCc1ccccc1N(CC(=O)N1CCC(Cc2ccccc2)CC1)S(C)(=O)=O,0.1,1.7
N#CC1(c2ccccc2)CCCN1C(=O)c1ccc(Br)o1 (stereo unspecified),0.3,2.3
O=C(NCc1cccc2ccccc12)C12CC3CC(CC(C3)C1)C2,1.2,5.2
C/C=C(/C)C(=O)O[C@H]1C=C(CO)C(=O)[C@H](OC(=O)/C(C)=C/CO)[C@H]1C(C)C,3.1,81*
COc1ccc(CN(C)C[C@@H]2Oc3c(NC(=O)c4cnccn4)cccc3C(=O)N([C@@H](C)CO)C[C@H]2C)cc1,.,-3.2
O=C(O)Cc1cc(I)c(Oc2cc(I)c(O)c(I)c2)c(I)c1,0.7,-4.7
CC(C)c1ccc(NC(=O)c2cc(F)cc3c2OCOC3)cc1,-0.5,7.2
Cc1ccc(/C=C2/Sc3ccc(C(=O)N4CCN(c5ccccc5F)CC4)cc3NC2=O)cc1,-0.3,-4.9
Cc1noc(C)c1NC(=O)Nc1cccc2c1O[C@@H](CN(C)Cc1ccc(-c3ccccc3)cc1)[C@@H](C)CN([C@@H](C)CO)C2=O,.,0.6
c1ccc(-c2nnn3c2nc(N2CCCC2)c2ccccc23)cc1,-0.5,-3.3
Fc1ccc(-c2[nH]ncc2CN2CCN(Cc3ccccc3)CC2)cc1,-0.8,10
CN1CCC[C@@H]1CCO[C@](C)(c1ccccc1)c1ccc(Cl)cc1,0.6,11
CNC[C@@H]1Oc2ccc(NC(=O)Cn3cnnn3)cc2C(=O)N([C@H](C)CO)C[C@@H]1C,0.0,5.8
O=C(CC1N=C2c3ccccc3N=C(SCc3ccccc3F)N2C1=O)NC1CCCCC1 (stereo unspecified),-0.5,-0.3
Cc1noc(C)c1S(=O)(=O)N(C)C[C@H]1Oc2ccc(NS(=O)(=O)c3cn(C)cn3)cc2C(=O)N([C@H](C)CO)C[C@H]1C,.,-0.9
Cc1ccc(S(=O)(=O)Nc2ccc(-c3csc(-c4ccccc4)n3)cc2)cc1,0.2,-3.8
CC(=O)Nc1ccc(NC(=O)C(Cc2ccccc2)NC(=O)C2CCCCC2)cc1 (stereo unspecified),.,-0.1
CCN(Cc1ccccc1)C(=O)CSc1nc2ccccc2c2nc3ccccc3n12,0.6,-0.5
C[C@H](CO)N1C[C@H](C)[C@H](CN(C)Cc2ccc(Oc3ccccc3)cc2)Oc2c(NS(=O)(=O)c3cccs3)cccc2C1=O,.,-3.8
CCCNC(=O)c1ccc(OCC)cc1,-0.3,-0.8
S=c1nc[nH]c2c1sc1nc(N3CCOCC3)c3c(c12)CCCC3,0.3,-0.2
C[C@H]1CN([C@@H](C)CO)C(=O)c2cc(NC(=O)C3CCCCC3)ccc2O[C@@H]1CN(C)Cc1ccc(Cl)c(Cl)c1,-0.2,10
O=C(Cc1ccccc1)Nc1ccc(-c2cn3cccnc3n2)cc1,.,1.0
C[C@@H]1CN([C@H](C)CO)C(=O)c2cc(NC(=O)NC3CCCCC3)ccc2O[C@@H]1CN(C)CC1CCCCC1,-0.1,2.4
NC1=NC(=O)CC(C(=O)Nc2ccc(Br)cc2)S1 (stereo unspecified),0.7,-4.7
COc1ccc(Nc2nccc(NCCO)n2)cc1,-0.8,2.6
Cc1cccc(Nc2ccncc2S(=O)(=O)NC(=O)NC(C)C)c1,-0.5,-4.1
O=C(Nc1ccncc1)Nc1c(Cl)cc(Cl)cc1Cl,1.1,0.0
Cc1noc(C)c1NC(=O)Nc1ccc2c(c1)C(=O)N([C@H](C)CO)C[C@@H](C)[C@@H](CN(C)C(=O)Nc1ccc3c(c1)OCO3)O2,-0.3,2.1
CC(C)c1ccc(NC(=S)N2CCCC(c3ccc(F)cc3)=N2)cc1,0.2,-0.2
Cc1nc(C(F)(F)F)ccc1-c1nnc(SCCCN2C(=O)c3ccccc3C2=O)o1,-0.1,0.7
C[C@H]1CN([C@@H](C)CO)C(=O)c2cccc(NC(=O)Nc3ccc(C(F)(F)F)cc3)c2O[C@@H]1CN(C)CC1CCCCC1,.,-0.5

# Sorted by number of heavy atoms (rising): part of the list above
SMILES,A1 inh,BJeLR viab HTS
CCCNC(=O)c1ccc(OCC)cc1,-0.3,-0.8
S=c1nc[nH]c2c1sc1nc(N3CCOCC3)c3c(c12)CCCC3,0.3,-0.2
CNC[C@@H]1Oc2ccc(NC(=O)Cn3cnnn3)cc2C(=O)N([C@H](C)CO)C[C@@H]1C,0.0,5.8

# (cont.)
SMILES,A1 inh,BJeLR viab HTS
COC(=O)C1=CN(C23CC4CC(CC(C4)C2)C3)C=C(C(=O)OC)C1c1cccc(OC)c1,-0.7,8.8
CN1C(=O)C(c2c[nH]c3ccccc23)=C(c2c[nH]c3ccccc23)C1=O,-0.4,7.3
O=c1c2ccccc2n2c(-c3ccccc3)nnc2n1CCc1ccccc1,-0.3,-3.5
C[C@@H]1CN([C@@H](C)CO)C(=O)c2cccc(NS(C)(=O)=O)c2O[C@@H]1CN(C)Cc1ccc(C(F)(F)F)cc1,.,0.3
c1ccc(CN2CCOCCN(Cc3ccccc3)CCOCC2)cc1,-0.4,2.4
C[C@@H]1CN([C@H](C)CO)C(=O)c2cc(NC(=O)CCCN(C)C)ccc2O[C@H]1CN(C)Cc1ccc(Cl)c(Cl)c1,0.0,-2.5
CC1=NN(c2ccc(S(N)(=O)=O)cc2)C(=O)/C1=C\C=C/c1ccccc1,2.7,14
CCOC(=O)CC1=Nn2c(nnc2-c2cccs2)SC1,3.3,4.9
COC(=O)C1C(=O)c2c([nH]c(C(=O)OC(C)C)c2C)CC1C (stereo unspecified),.,2.6
COc1ccc(OC)c(/C=C/C(=O)O)c1,-0.7,5.9
CCOC(=O)c1c(C)nn(Cc2cccc(Cl)c2)c1N,0.3,2.4
CCN(c1ccccc1)c1nc2ccsc2c(=O)s1,.,-5.2
Cc1noc(C)c1S(=O)(=O)Nc1ccc2c(c1)C(=O)N([C@H](C)CO)C[C@H](C)[C@H](CN(C)S(=O)(=O)c1ccc(F)cc1)O2,0.9,-8.2
Cc1ccc(-n2c(=O)c(C#N)cc3c(=O)n4ccccc4nc32)cc1,0.3,4.4
C[C@@H]1CN([C@@H](C)CO)C(=O)c2cccc(NC(=O)Nc3ccc(C(F)(F)F)cc3)c2O[C@@H]1CN(C)S(=O)(=O)c1ccc(Cl)cc1,.,-7.4
Cc1cc(=O)[nH]c(SCC(=O)C23CC4CC(CC(C4)C2)C3)c1C#N,0.7,4.1
Cc1noc(C)c1S(=O)(=O)N(C)C[C@@H]1Oc2c(cccc2N(C)C)C(=O)N([C@H](C)CO)C[C@@H]1C,.,-3.7
Oc1cc(Cc2ccccc2)cnc1CN1CCOCC1,0.2,-2.5
OCCNc1ccc2ccccc2n1,0.0,-1.6
COc1cc(O)c(Oc2cc(C)cc(O)c2C(=O)O)c(CO)c1,-0.1,-1.0
O=C(COC(=O)c1ccccc1Nc1ccccc1)c1ccccc1,-0.4,-3.8
C[C@H](CO)N1C[C@H](C)[C@H](CN(C)Cc2ccc(Oc3ccccc3)cc2)Oc2ccc(NC(=O)Nc3ccc(F)cc3)cc2C1=O,0.1,-2.9
Cc1ccc(S(=O)(=O)N(C)C[C@H]2Oc3c(NC(=O)NC4CCCCC4)cccc3C(=O)N([C@@H](C)CO)C[C@@H]2C)cc1,.,-2.0
CC(C)(C)NC(=O)c1ccccc1,-0.2,0.1
Cc1nn(-c2ccccc2)nc1CNC(=O)c1ccc(N(C)C)cc1,0.4,0.4
COc1ccc(S(=O)(=O)Nc2ccc3c(c2)C(=O)N([C@H](C)CO)C[C@@H](C)[C@@H](CN(C)S(=O)(=O)c2ccc(OC)cc2)O3)cc1,0.3,-2.4
COc1ccc(CN(C)C[C@@H]2Oc3c(NC(=O)NC4CCCCC4)cccc3C(=O)N([C@H](C)CO)C[C@H]2C)cc1,.,-2.3
O=c1c2sc(=S)n(Cc3ccco3)c2nc(SCc2ccccc2)n1-c1ccccc1,0.4,-2.5
CC(=O)Nc1c(N)c2ccccc2oc1=O,-0.5,-1.0
CCC(CC)C(=O)N1c2ccccc2Sc2ccccc21,0.6,-2.8
CC1CCN(C(=O)c2ccc3c(Cl)c4c(nc3c2)CCCC4)CC1,.,-4.2
Cc1noc(C)c1NC(=O)N(C)C[C@@H]1Oc2ccc(NC(=O)CCCN(C)C)cc2C(=O)N([C@@H](C)CO)C[C@@H]1C,0.9,3.1
C[C@@H]1CN([C@@H](C)CO)C(=O)c2cccc(NS(=O)(=O)c3cccs3)c2O[C@H]1CN(C)Cc1ccc(Cl)c(Cl)c1,.,1.2
Cc1cccc(NC(=O)c2ccco2)n1,-4.1,0.7
CC(C)NC(=O)Nc1cccc2c1O[C@@H](CN(C)Cc1ccccc1)[C@@H](C)CN([C@@H](C)CO)C2=O,.,3.3
COc1ccc2oc(=O)c(-c3nc(-c4ccc(Cl)cc4)cs3)cc2c1,-0.2,-2.0
CC1(C)Cc2nc3sc4c(=O)n(CC(=O)c5ccc(Cl)cc5)cnc4c3cc2CO1,0.4,-1.0
C[C@@H]1CN([C@H](C)CO)C(=O)c2cccc(NS(=O)(=O)c3ccc(F)cc3)c2O[C@@H]1CN(C)Cc1ccc(-c2ccccc2)cc1,.,-2.2
O=C1CCC(c2ccccc2)c2cc(Oc3c(F)c(N4CCOCC4)nc(F)c3Cl)ccc21 (stereo unspecified),0.0,3.0
CCCn1c(-c2ccc(F)cc2)n[nH]c1=O,-1.0,3.4

# 2 records drawn at random from those above, as already listed:
SMILES,A1 inh,BJeLR viab HTS
COc1ccc(CN(C)C[C@@H]2Oc3c(NC(=O)NC4CCCCC4)cccc3C(=O)N([C@H](C)CO)C[C@H]2C)cc1,.,-2.3
Cc1ccc(S(=O)(=O)N(C)C[C@H]2Oc3c(NC(=O)NC4CCCCC4)cccc3C(=O)N([C@@H](C)CO)C[C@@H]2C)cc1,.,-2.0

# Continuation:
SMILES,A1 inh,BJeLR viab HTS
CCN(CC)c1ccc(NC(=O)C2c3ccccc3Oc3ccccc32)cc1,.,-1.5
CC1(C)CC(=O)c2c([nH]c(-c3ccccc3)c2-c2ccccc2)C1,0.8,-0.5
C[C@@H]1CN([C@@H](C)CO)C(=O)c2cccc(NC(=O)C3CCCCC3)c2O[C@H]1CN(C)Cc1ccc(C(F)(F)F)cc1,.,-0.1
Cc1ccccc1NC(=O)CN1C(=O)c2ccccc2C1=O,-0.4,-1.2
C[C@@H]1CN([C@H](C)CO)C(=O)c2cc(NC(=O)CCC(F)(F)F)ccc2O[C@H]1CN(C)S(=O)(=O)c1cn(C)cn1,0.3,-0.5
C[C@@H]1CN([C@H](C)CO)C(=O)c2cc(NS(=O)(=O)c3ccc(F)cc3)ccc2O[C@@H]1CN(C)Cc1ccc(Cl)c(Cl)c1,0.7,-2.4
N/C(=N\O)C(=O)Nc1ccccc1,-2.8,6.9
COc1ccc(CN(C)C[C@H]2Oc3c(NS(=O)(=O)c4ccc(OC)cc4)cccc3C(=O)N([C@H](C)CO)C[C@H]2C)cc1,.,-2.4
Cc1noc(C)c1NC(=O)N(C)C[C@H]1Oc2ccc(NC(=O)CCCN(C)C)cc2C(=O)N([C@@H](C)CO)C[C@H]1C,0.3,-5.3
Cc1noc(C)c1NC(=O)Nc1ccc2c(c1)C(=O)N([C@@H](C)CO)C[C@H](C)[C@H](CN(C)Cc1ccc(C(=O)O)cc1)O2,0.0,-3.0
Cc1ccc(S(C)(=O)=NS(=O)(=O)c2sc3ccc(Cl)cc3c2C)cc1 (stereo unspecified),0.7,3.4
CCOC(=O)c1nnn2c1nc(Sc1nnc(-c3ccncc3)n1C)c1ccccc12,-1.4,14
COc1ccccc1CN1CCCC(C(=O)N(C)Cc2ccccc2)C1 (stereo unspecified),.,7.4
C[C@H]1CN([C@@H](C)CO)C(=O)c2cc(NC(=O)C3CCCCC3)ccc2O[C@H]1CN(C)Cc1ccc(-c2ccccc2)cc1,-0.3,2.4
COc1ccc2sc(N(CCN(C)C)C(C)=O)nc2c1,0.1,-0.5
Cc1ccc(S(=O)(=O)/N=C(\Nc2cc(C)on2)c2ccccc2)cc1,-0.5,-1.8
Cc1ccc2c3c(ccc2n1)NC1=C(C(=O)CCC1)C3C1CC=CCC1 (stereo unspecified),.,-6.4
COc1ccc(NC(=O)Nc2cccc3c2O[C@H](CN(C)C(=O)NC2CCCCC2)[C@H](C)CN([C@@H](C)CO)C3=O)cc1,.,0.1

# Some of the entries so far, tab-delimited.
SMILES	A1 inh	BJeLR viab HTS
C[C@@H]1CN([C@H](C)CO)C(=O)c2cc(NC(=O)CCC(F)(F)F)ccc2O[C@H]1CN(C)S(=O)(=O)c1cn(C)cn1	0.3	-0.5
Cc1noc(C)c1NC(=O)Nc1ccc2c(c1)C(=O)N([C@@H](C)CO)C[C@H](C)[C@H](CN(C)Cc1ccc(C(=O)O)cc1)O2	0.0	-3.0
C[C@H]1CN([C@@H](C)CO)C(=O)c2cc(NC(=O)C3CCCCC3)ccc2O[C@H]1CN(C)Cc1ccc(-c2ccccc2)cc1	-0.3	2.4
N/C(=N\O)C(=O)Nc1ccccc1	-2.8	6.9
